# Screening data: PubChem, ICCB-Longwood Screening Facility, Harvard Medical School
# AID504770 = E. coli YBA685 growth inhibition, screen for V. cholerae RctB inhibitors | E. coli YBA685 rctB-dependent plasmid, OD600 growth, 3 h; active compounds read low | z-score (no concentration beside the values) | actives 0.27% (n = 130,000);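 active means z-score under -2 on both plates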;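 further: wells of about 30 µL received 100 nL stock; score is relative to mean and SD of the test wells; the first replicate is given; strong numbers were not always called active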
# CapD inh = blocks the Bacillus anthracis CapD enzyme; z-score (test concentration not listed); actives 0.23% (n = 140,000); purified CapD enzyme, fluorescence intensity read-out; active compounds read low; some hits fall short of the stated cut;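 active means z-score under -4 in either of two replicates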;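 further: stock transfer was 100 nL into about 40 µL; score is relative to mean and spread of the plate; one replicate is shown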
# * marks the source's active call; other numbers are inactive results; x = no result given.
# Start of the data: the first 15 entries, ahead of the listing:
SMILES,AID504770,CapD inh
CC1(C)Cc2cccc(C(=O)N3CCC(C(=O)c4ccc(Cl)cc4)CC3)c2O1,-0.75,-0.125
CS(=O)(=O)c1ccc(/C=C/C(=O)O)cc1,x,-0.085
CNc1ccc(S(=O)(=O)c2ccc(NC)cc2)cc1,0.05,-0.22
C/C(Cc1nc2ccccc2[nH]1)=N/Nc1ccccc1,-0.15,x
O=C(CCCN1C(=O)/C(=C\c2ccco2)SC1=S)Nc1cccnc1,0.4,x
CCN(Cc1cc(=O)oc2ccc(OC)cc12)c1ccccc1,2.25,-0.97
COc1ccc(S(=O)(=O)NCCN2CCCC2)cc1OC,x,-1.33
CCOC(=O)C1=C(CSc2nnc(-c3ccccc3OC)n2C2CCCCC2)NC(=O)NC1C (configuration not stated),-0.7,x
CCOc1ccccc1-n1c(N)c(C#N)c(N)c(C#N)c1=S,0.25,0.63
COc1ccc(OC)c(CNC(=O)Cn2nc(-c3ccccc3)ccc2=O)c1,1.4,-0.255
NC(=O)c1ccccc1NC(=O)c1cccc(COc2ccc3c(c2)CCC3)c1,0.75,39.4
O=c1c2cccnc2nc(SCc2ccccc2F)n1Cc1ccccc1,-0.15,1.01
O=C1CC(c2ccccc2)CC(O)=C1C=Nc1ccccc1 (configuration not stated),-1.4,0.135
OC(CN1CCN(c2ncc(C(F)(F)F)cc2Cl)CC1)C(F)(F)F (configuration not stated),x,-0.48
O=c1c(C=Nc2ccc(C(F)(F)F)cc2)c(C(F)(F)F)[nH]n1-c1ccccc1,x,0.295

# The whole of this part, previewed entries included:
SMILES,AID504770,CapD inh
CC1(C)Cc2cccc(C(=O)N3CCC(C(=O)c4ccc(Cl)cc4)CC3)c2O1,-0.75,-0.125
CS(=O)(=O)c1ccc(/C=C/C(=O)O)cc1,x,-0.085
CNc1ccc(S(=O)(=O)c2ccc(NC)cc2)cc1,0.05,-0.22
C/C(Cc1nc2ccccc2[nH]1)=N/Nc1ccccc1,-0.15,x
O=C(CCCN1C(=O)/C(=C\c2ccco2)SC1=S)Nc1cccnc1,0.4,x
CCN(Cc1cc(=O)oc2ccc(OC)cc12)c1ccccc1,2.25,-0.97
COc1ccc(S(=O)(=O)NCCN2CCCC2)cc1OC,x,-1.33
CCOC(=O)C1=C(CSc2nnc(-c3ccccc3OC)n2C2CCCCC2)NC(=O)NC1C (configuration not stated),-0.7,x
CCOc1ccccc1-n1c(N)c(C#N)c(N)c(C#N)c1=S,0.25,0.63
COc1ccc(OC)c(CNC(=O)Cn2nc(-c3ccccc3)ccc2=O)c1,1.4,-0.255
NC(=O)c1ccccc1NC(=O)c1cccc(COc2ccc3c(c2)CCC3)c1,0.75,39.4
O=c1c2cccnc2nc(SCc2ccccc2F)n1Cc1ccccc1,-0.15,1.01
O=C1CC(c2ccccc2)CC(O)=C1C=Nc1ccccc1 (configuration not stated),-1.4,0.135
OC(CN1CCN(c2ncc(C(F)(F)F)cc2Cl)CC1)C(F)(F)F (configuration not stated),x,-0.48
O=c1c(C=Nc2ccc(C(F)(F)F)cc2)c(C(F)(F)F)[nH]n1-c1ccccc1,x,0.295
O=C(Cc1ccccc1F)NCCc1c[nH]c2ccccc12,-0.4,-0.75
CC1=C(C(=O)OCc2ccccc2)C2(C(=O)Nc3ccccc32)C(C(=O)OC(C)(C)C)=C(N)O1 (configuration not stated),x,-0.095
Cc1ccccc1C(=O)Nc1nnc(SCC(=O)Nc2ccc(F)cc2)s1,1.85,-0.245
O=c1c2c(nc(NCCO)n1-c1ccccc1)-c1ccccc1CC21CCCC1,-0.05,38.2
COc1cc(C(=O)Nc2nnc(SCC(=O)Nc3ccc(F)cc3)s2)cc(OC)c1OC,x,2.42
COc1ccc(C2=NN(C(=O)CSc3nnc(CNC(=O)c4ccc(OC)c(OC)c4)n3C)C(c3ccc(F)cc3)C2)cc1 (configuration not stated),x,0.395
CCc1nn(CC(=O)NC(C)c2ccc3c(c2)OCCO3)c(=O)c2cc3sccc3n12 (configuration not stated),-0.25,-0.63
O=C(c1ccc(Oc2cc(Cl)cc(Cl)c2)o1)N1CCCCC1,-0.7,0.02
O=C(COC(=O)c1ccccn1)NCc1ccccc1,0.1,0.455
Cc1c(C(=O)N(C)C)sc2[nH]c(=S)n(CCc3ccc(Cl)cc3)c(=O)c12,0.45,0.145
c1ccc(COC(CN2CCCC2)CN2CCCC2)cc1,0.45,0.27
CCO/C=C(\C#N)S(=O)(=O)c1ccccc1,x,0.22
COc1cccc2cc(C(=O)Nc3ccccc3)c(=Nc3ccc(C(=O)O)cc3)oc12,x,0.735
FC(F)Sc1nnc2sc3ccccc3n12,-1.1,x
O=C(NC(Nc1cccc(C(F)(F)F)c1)C(=O)c1ccccc1)c1cccs1 (configuration not stated),-0.9,-0.695
CC(C)CC(N(C)C)C1(c2ccc(Cl)cc2)CCC1 (configuration not stated),-0.15,x
Cc1c(CC(=O)Nc2ccc(Cl)cc2)sc2ccc(Cl)cc12,0.85,1.06
O=C(CCCn1c(=O)[nH]c2cc(Cl)ccc2c1=O)NC1CCCCCCC1,-0.45,0.64
Cc1cc(-c2nc(-c3ccc(NC(=O)c4cccc(Cl)c4)cc3)no2)ccc1[N+](=O)[O-],x,0.16
NCCN1C(=O)c2[nH]nc(-c3ccccc3)c2C1c1ccccc1 (configuration not stated),1.65,-0.33
O=C(CSc1ncc(C(F)(F)F)cc1Cl)N1CCC(c2nc3ccccc3o2)CC1,-0.95,x
CN1CCN(Cc2ccccc2)CC1,-0.05,0.23
Cc1cccc(NC(=O)CCCN2C(=O)C(c3ccccc3)Oc3cccnc32)c1C (configuration not stated),0.3,-0.18
COc1ccc(COC(=O)C2=C(C)NC(=O)NC2c2cc(Br)c(O)c(OC)c2)cc1 (configuration not stated),x,-0.35
CCC1CSC(Nc2ccc(C)c(Cl)c2)=N1 (configuration not stated),0.1,0.255
COc1cc(/C=C2/C(=O)N(c3ccc(Br)cc3)N=C2C)cc([N+](=O)[O-])c1O,x,-0.09
Cc1ccc(C(=O)Nc2ccnn2C(C)C)cc1,-0.75,x
C=C(C)CC(N)(CC(=C)C)c1ccncc1,-0.25,0.71
O=C(O)CCCC(=O)NC1CCCCNC1=O (configuration not stated),0.05,0.94
CC(NC(=O)Cc1ccccc1)c1ccccc1 (configuration not stated),-1.85,x
CCCCC1C(=O)NN(C2CCSC(C)(C)C2)C1=O (configuration not stated),-0.35,x
FC(F)(F)c1cc(/C=C\c2noc(-c3ccccc3CN3CCCC3)n2)cc(C(F)(F)F)c1,-0.7,-0.65
CC(C)CCNC(=O)c1cc(Sc2ccc(F)cc2)nc2ccccc12,x,0.425
CCOC(=O)CN(C)c1nc(-c2ccccc2)cs1,0.5,0.485
C=CCN1C(=O)/C(=C\c2cccs2)SC1=S,-0.05,x
S=C(NC1CC1)N1CCc2ccccc2C1,-0.25,-0.355
Cc1noc(C(F)(F)F)c1-c1nnc(-c2cccc(C(F)(F)F)c2)o1,-0.15,0.915
Cc1cccn2c(/C=N/OCc3ccc(F)cc3)c(-c3ccc(Cl)cc3)nc12,x,0.62
CCc1nc2n(n1)C(O)c1cc(N)ccc1S2 (configuration not stated),2.15,x
CC1CC(C)CN(C(=O)CN(C)S(=O)(=O)c2cccc3cccnc23)C1 (configuration not stated),0.05,0.04
CN(CC(=O)Nc1ccc(N2CCOCC2)cc1)C(=O)c1ccc(OC(F)F)cc1,-0.1,x
O=C1OC(C(=O)O)Cc2ccccc21 (configuration not stated),0.2,x
C=CCN1C(=O)/C(=C2/C(=O)N(S(=O)(=O)c3ccc(C)cc3)c3ccccc32)SC1=S,x,0.11
COC(=O)c1ccc2c(c1)C(=O)/C(=C/c1cn(-c3ccccc3)nc1-c1ccccc1)O2,1.9,-0.44
COc1ccc(-c2nnc(SCC(=O)c3cc(C)n(CC(F)(F)F)c3C)o2)cc1,-0.25,x
# The list continues.
SMILES,AID504770,CapD inh
O=c1oc2ccccc2c2c1ncn2CCN1CCCC1,1.5,-0.75
O=C(Nc1nnc(N2CCCCCC2)s1)c1csc2c1CCCC2,-0.65,0.42
Cc1cc(C(=O)OCC(N)=O)c(C)o1,-1.2,1.21
COC(=O)c1ccc(COC(=O)/C=C/c2ccc3c(c2)OCO3)o1,-0.85,x
CCOC(=O)c1[nH]c(Cc2[nH]c(C(=O)OCC)c(C)c2CC)c(CC)c1C,x,0.505
CCc1ccc(-c2nn(-c3ccccc3)cc2/C=C(/C#N)C(N)=O)cc1,0.45,0.465
O=C1CCCC2=C1C(C#Cc1ccccc1)C1=C(CCCC1=O)O2,x,-0.295
Cc1ccc2nc(C)cc(N3CCOCC3)c2c1,-0.2,-1.36
CCCCn1c(SCC(=O)N2CCCCC2)nc2ccccc2c1=O,-0.05,x
COc1ccccc1CN1CCC(CNS(=O)(=O)c2ccc3c(c2)CCCC(=O)N3)CC1,0.35,-0.005
COc1cc(C2C(C#N)=C(N)N(c3cccc([N+](=O)[O-])c3)C3=C2C(=O)CCC3)cc(OC)c1OC (configuration not stated),x,-0.77
O=C1CC(c2ccccc2)C2=C(CC(c3cccs3)CC2=O)N1 (configuration not stated),-0.15,1.37
Cc1ccc(/C=N/NC(=O)c2ccc(CN3CCOCC3)cc2)cc1,-1.3,0.23
CCCC(=O)N1c2cc(OC)ccc2C2=C(SC(C(=O)OC)=C(C(=O)OC)C23SC(C(=O)OC)=C(C(=O)OC)S3)C1(C)C,x,-0.475
CCOC(=O)CSC1=C(C#N)C(c2ccccc2Cl)C(C(=O)OC)C(=O)N1 (configuration not stated),-0.15,0.305
N#Cc1c(Cl)cccc1OCC(F)(F)F,x,0.59
O=C(NCc1ccco1)c1oc(=O)c2ccccc2c1-c1ccccc1,0.05,-0.435
COc1cc(/C=c2/sc3nc4ccccc4n3c2=O)ccc1OCc1ccccc1C,x,0.065
COC(=O)c1cc2c(nc1SCC(=O)CC#N)CCC2,-0.65,28.1
Cc1nn(CCC#N)c2[nH]c(=O)cc(C(F)(F)F)c12,1.8,6.77
COc1ccc(S(=O)(=O)NCCSCC(=O)N(C2CC2)C2CCN(C(C)=O)CC2)cc1,x,-0.035
Cc1nn(C)c(C)c1NC(=O)CCCC(=O)c1ccccc1,-0.1,0.525
Cc1cc(N2CCCC2=O)cc(C)c1S(=O)(=O)NCCOc1ccccc1,1.55,-0.09
COC(=O)c1ccc(S(=O)(=O)N(Cc2ccccc2)C(C)C)o1,0.2,0.45
CCOC(=O)CC(=O)CSc1nc(C)c2cc(C)c(C)cc2n1,x,0.055
CCOc1ccc(CCNC(=O)C2CC(C)=CCC2C(=O)O)cc1OCC (configuration not stated),-0.75,-0.435
CSC1=C(C#N)C(C)CC(=O)N1 (configuration not stated),-0.45,x
N#Cc1nncn1CN1CCC(Cc2ccccc2)CC1,0.3,x
CSc1c(NC(=O)/C=C/C(=O)O)cccc1C(F)(F)F,-0.55,-0.055
N#CC1=C(SCC(=O)Nc2cccc(Br)c2)NC(=O)CC1c1cccs1 (configuration not stated),x,-0.1
COc1ccccc1-n1c(=O)c2c(n3cnnc13)-c1ccccc1CC21CCCCC1,x,-0.48
COc1ccc(C(=O)NCCS(=O)(=O)N2CCN(C(=O)c3ccco3)CC2)cc1,-0.7,x
CCOC(=O)CCc1c(C)nc2ncnn2c1C,1.95,-0.22
CSc1nnc(NC(=O)COc2ccc(Cl)cc2Cl)s1,-0.2,-0.395
Cc1cc(OC(=O)/C=C/c2ccco2)ccc1Cl,-0.5,x
COc1cc(-c2c(C#N)c(N)nc(SCC(=O)O)c2C#N)cc(OC)c1OC,x,1.84
CC1CCN(c2c(S(=O)(=O)c3ccccc3)cnc3ccccc23)CC1,-0.95,0.065
CN(Cc1ccccc1)C(=O)c1cc2c(=O)n3ccccc3nc2n1C,1.55,x
CCCCCCc1ccc(C(=O)NNC(=O)c2ccco2)cc1,x,0.12
O=C(CSc1nnc(CNC(=O)c2cccs2)o1)NC1CCCC1,2.15,-0.48
CCn1c(=O)c(=O)[nH]c2c(=O)oc3ccccc3c21,1.05,0.04
COc1ccnc(Oc2ccccc2)c1C(=O)N/C=N/OCc1ccccc1,x,-0.27
COc1cccc(CNC(=O)C(C)n2sc3ccccc3c2=O)c1 (configuration not stated),-0.05,0.46
Cc1ccc(N2C(=O)CSC23C(=O)N(CN2CCOCC2)c2ccccc23)cc1Br (configuration not stated),x,-0.1
Cc1ccc(/C=C/C(=O)O)cc1S(=O)(=O)NCc1cccnc1,0.1,-0.36
O=C(O)COCC(=O)Nc1cccc(C(=O)O)c1,-1,2.79
Cc1cc(C(=O)CSc2nnc(-c3ccco3)o2)c(C)n1-c1nccs1,-0.65,x
Cc1noc2nc(-c3ccccc3)cc(C(F)(F)F)c12,-0.6,6.31
COc1ccccc1CC(=O)NCc1csc(-c2cccs2)n1,0.5,31.4
COc1cc(OC)nc(N2CCN(c3cccc(C(F)(F)F)c3)CC2)n1,x,-0.285
CN(C(=O)c1c[nH]c2ccc(S(=O)(=O)N(C)c3ccc(Br)cc3)cc2c1=O)C1CCCCC1,x,-0.09
CN(C)c1ccc(CCOC(=O)NNC(=O)/C=C/c2ccco2)cc1,x,-0.07
CC1CCN(S(=O)(=O)c2ccc(C(=O)Nc3ccc4c(c3)C(=O)NC4=O)cc2)CC1,0.2,x
CCOC(=O)c1cnc(SC)nc1Oc1ccc(Cl)cc1Cl,x,-0.39
COc1cc(-c2[nH]nc3c2C(c2cccc(Br)c2)C(C#N)=C(N)O3)cc(OC)c1OC (configuration not stated),x,0.355
COc1cccc(-c2noc(N3CCC4(CC3)OCCO4)n2)c1,0.65,-0.53
Cc1c(C)c(C)c(S(=O)(=O)N=C(N)N)c(C)c1C,2.6,0.135
CCOc1ccc(C(=O)/C=C/C(=O)O)cc1,-1.05,-0.97
c1ccc(CNc2cccc3nonc23)cc1,-0.05,-0.63
CCN(CC)CCN1C(=O)C(=O)/C(=C(/O)c2ccc(OC)cc2C)C1c1ccc(F)cc1 (configuration not stated),-0.7,-1.79
COc1ccc(S(=O)(=O)CCc2nnc(NC(=O)c3ccc(OC)c(OC)c3)s2)cc1,x,0.36
